BJeLR viability = BJeLR cell viability loss, primary screen, luminescence, CellTiterGlo ATP | viability loss activity score, % (no concentration beside the values) | BJeLR fibroblasts viability, 48 h; HRASV12, hTERT and SV40 LT/ST transformed | 0.64% of 30,000 active; in the data active = viability loss activity score above about 50%; about a fifth of its hits are not listed in these tables;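 note: higher score means fewer live cells and less ATP luminescence; stock transfer was 50 or 100 nL into about 30 µL; 0% = vehicle wells and 100% = a reference killing control; one replicate is shown; the record names a cut of 85%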
A1 inhib = inducers of caspase activity in MEF A1-2A-BIM cells, primary screen, A1 inhibitor project, cell-based, CaspaseGlo luminescence; caspase activation, % (no concentration beside the values); caspase-Glo luminescence, 3 h; percent of clofoctol signal, DMSO as zero; 0.51% of 21,000 active; AID 2241, 2010;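 active = most replicate scores above 10, or exactly half above 10 with mean activity above 10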;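 note: effector caspase 3 and 7 activity cleaving a DEVD luciferin substrate; 50 nL library stock added to about 30 µL; numbers are from one replicate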
Numbers without * were called inactive; nt = no result given. A portion of the library, so the mix of outcomes need not match the whole.

SMILES	BJeLR viability	A1 inhib
C[C@@H]1CN([C@@H](C)CO)C(=O)c2cccc(NC(=O)C3CCOCC3)c2O[C@H]1CN(C)C(=O)Nc1ccccc1	-1.4	nt
CC(=O)N1N=C2c3ccccc3CCC2C1c1cccs1 (stereo not given)	-4.1	0.7
Cc1noc(C)c1S(=O)(=O)N1c2ccccc2CC1C (stereo not given)	2.8	nt
COC(=O)CN1C(c2ccccc2)=Nc2ccc(C)cc2C1c1ccccc1 (stereo not given)	-4.2	nt
C[C@@H]1CN([C@@H](C)CO)C(=O)c2cccc(NC(=O)Nc3ccc4c(c3)OCO4)c2O[C@H]1CN(C)Cc1ccccc1	1.3	nt
CC1=C(C(=O)OC(C)C)C(c2cn(-c3ccccc3)nc2-c2ccc(OC(C)C)cc2)NC(=O)N1 (stereo not given)	-5.6	-0.4
Cc1ccc(-c2noc(CCC(=O)NCCCN3CCN(c4ccc(F)cc4)CC3)n2)cc1	4.6	nt
C[C@@H]1CN([C@H](C)CO)C(=O)c2cc(NC(=O)Nc3ccc4c(c3)OCO4)ccc2O[C@H]1CN(C)S(=O)(=O)c1ccc(F)cc1	5.2	0.6
O=C(O)c1ccccc1Nc1cccc(C(F)(F)F)c1	7.5	-3.4
C[C@@H]1CN([C@H](C)CO)C(=O)c2cc(NC(=O)NC3CCCCC3)ccc2O[C@@H]1CN(C)Cc1ccc(Oc2ccccc2)cc1	1.3	0.4
S=C(NCCc1ccccc1)NCC(c1cccnc1)N1CCOCC1 (stereo not given)	-5.4	nt
COC(=O)c1ccc(C(=O)OC)c(NC(=S)N2CCCCC2C)c1 (stereo not given)	-7.2	nt
N=C1CCCN1CC(=O)c1ccc(Br)cc1	2.7	0.8
COc1ccc(NC(=O)N(C)C[C@H]2Oc3c(NC(=O)c4cc(C)nn4C)cccc3C(=O)N([C@@H](C)CO)C[C@H]2C)cc1	-3.0	nt
CCN(CC)S(=O)(=O)c1cccc2cc(C(=O)O)c(O)cc12	-4.2	-0.2
C[C@H](CO)N1C[C@H](C)[C@@H](CN(C)Cc2ccncc2)Oc2ccc(NC(=O)Nc3cccc4ccccc34)cc2C1=O	-1.7	0.5
CCCCc1cc(=O)oc2cc(OCC(N)=O)ccc12	-3.1	-0.6
Cc1ccc(S(=O)(=O)N(C)C[C@@H]2Oc3ccc(NS(=O)(=O)c4ccc(F)cc4)cc3C(=O)N([C@H](C)CO)C[C@H]2C)cc1	-4.5	0.0
CCC(=O)Nc1ccc(C#N)cc1	4.4	0.0
CSc1nc2ccccc2c(=O)n1CC(=O)C(C)(C)C	1.8	-0.6
O=C(O)CCC(=O)N1CCOc2ccccc21	-2.7	0.2
C[C@H]1CN([C@@H](C)CO)C(=O)c2cc(NC(=O)Cc3cn(C)c4ccccc34)ccc2O[C@@H]1CN(C)S(=O)(=O)c1cn(C)cn1	-5.2	1.6
CCOC(=O)c1ccc2c(c1)sc1nc(-c3ccc(C)cc3C)cn12	7.9	-0.6
CC1(C)OC(=O)C=C[C@@]2(C)C1C[C@@H](O)[C@]1(C)C2CC[C@@]2(C)[C@H](c3ccoc3)OC(=O)C3OC321 (stereo not given in full)	-1.9	0.6
COc1ccc(NC(=O)N(C)C[C@H]2Oc3ccc(NC(=O)NC(C)C)cc3C(=O)N([C@@H](C)CO)C[C@@H]2C)cc1	-2.2	-0.5
C[C@H]1CN([C@@H](C)CO)C(=O)c2cc(NC(=O)CCCCCC(=O)Nc3ccccc3N)ccc2O[C@@H]1CN(C)S(=O)(=O)c1ccc(Cl)cc1	-8.2	nt
CCc1cccc(NC(=S)N(C)Cc2cn(C)c3ccccc23)c1	2.5	0.4
C[C@@H]1CN([C@@H](C)CO)C(=O)c2cccc(NC(=O)Nc3ccc(C(F)(F)F)cc3)c2O[C@@H]1CN(C)Cc1ccc(C(=O)O)cc1	3.9	nt
CC(=O)OC(C(=O)Nc1nc2ccccc2s1)c1ccccc1 (stereo not given)	1.3	-1.0
COc1ccc(/C=C/C(=O)N2c3ccccc3Sc3ccccc32)c(OC)c1	-5.6	-1.1
Cc1cc(/C=C2/SC(=O)N(C(C)C)C2=O)c(C)n1-c1ccncc1	-4.6	0.6
C[C@@H]1CN([C@H](C)CO)C(=O)c2cccc(NC(=O)Nc3ccccc3)c2O[C@H]1CN(C)S(=O)(=O)c1cccs1	-4.0	nt
COc1ccc(NC(=O)N(C)C[C@@H]2Oc3ccc(NS(=O)(=O)c4cn(C)cn4)cc3C(=O)N([C@@H](C)CO)C[C@@H]2C)cc1	-0.2	0.3
Cc1ccc(S(=O)(=O)Nc2cccc3c2O[C@H](CN(C)CC2CCCCC2)[C@@H](C)CN([C@@H](C)CO)C3=O)cc1	0.7	nt
C[C@@H]1CN([C@H](C)CO)C(=O)c2cc(NS(=O)(=O)c3ccccc3)ccc2O[C@@H]1CN(C)Cc1ccccc1	-0.6	-1.1
C[C@@H]1CN([C@H](C)CO)C(=O)c2cccc(NS(=O)(=O)c3cn(C)cn3)c2O[C@H]1CN(C)CC1CCCCC1	-11	nt
COc1ccc(CC(=O)NN2C(=O)CSCC2=O)cc1OC	0.5	-0.2
C[C@H](CO)N1C[C@H](C)[C@H](CN(C)S(=O)(=O)c2ccc(Cl)cc2)Oc2c(NC(=O)C3CCCCC3)cccc2C1=O	1.7	nt
C[C@@H]1CN([C@@H](C)CO)C(=O)c2cc(N(C)C)ccc2O[C@@H]1CN(C)S(=O)(=O)c1cccs1	2.0	0.6
COC(=O)CNS(=O)(=O)c1ccc(I)cc1	0.7	-0.7
C[C@H](CO)N1C[C@H](C)[C@H](CN(C)Cc2ccc3c(c2)OCO3)Oc2ccc(NC(=O)C3CC3)cc2C1=O	-1.7	0.7
Cc1noc(C)c1S(=O)(=O)N(C)C[C@@H]1Oc2c(NC(=O)c3ccc(-c4nccs4)cc3)cccc2C(=O)N([C@@H](C)CO)C[C@@H]1C	0.9	nt
Cc1ccc(S(=O)(=O)Nc2cccc3c2O[C@@H](CN(C)S(=O)(=O)c2ccc(C)cc2)[C@H](C)CN([C@H](C)CO)C3=O)cc1	-3.3	nt
COc1cccc(OC)c1CN(C)C(=O)c1cnc(Oc2ccccc2)cc1C(F)(F)F	-2.8	0.8
CSc1nn(C)c2cnn(C)c(=O)c12	-0.1	-0.8

Looked up by structure from the entries so far, 3 records:
SMILES	BJeLR viability	A1 inhib
COc1ccc(CC(=O)NN2C(=O)CSCC2=O)cc1OC	0.5	-0.2
C[C@H](CO)N1C[C@H](C)[C@H](CN(C)Cc2ccc3c(c2)OCO3)Oc2ccc(NC(=O)C3CC3)cc2C1=O	-1.7	0.7
C[C@@H]1CN([C@H](C)CO)C(=O)c2cccc(NC(=O)Nc3ccccc3)c2O[C@H]1CN(C)S(=O)(=O)c1cccs1	-4.0	nt

Next structures
SMILES	BJeLR viability	A1 inhib
CNC[C@@H]1Oc2c(N)cccc2C(=O)N([C@@H](C)CO)C[C@@H]1C	-3.7	nt
Cn1c(SCC(=O)NN)nnc1-c1ccccc1	-3.7	-0.1
CC(C)NC(=O)Nc1ccc2c(c1)C(=O)N([C@@H](C)CO)C[C@H](C)[C@@H](CN(C)Cc1ccc(Cl)c(Cl)c1)O2	-0.2	-0.2
CC1(C)CC(=O)C2=C(C1)Nc1[nH]c(=S)[nH]c(=O)c1C2c1cccs1 (stereo not given)	15	-0.5
CC1CCN(S(=O)(=O)c2ccc(NC(=O)/C=C/c3ccccc3)cc2)CC1	3.8	0.4
COc1ccc(S(=O)(=O)Nc2cccc3c2O[C@@H](CN(C)S(=O)(=O)c2cccs2)[C@H](C)CN([C@@H](C)CO)C3=O)cc1	-0.5	nt
Cc1ccc(S(=O)(=O)Nc2ccc3c(c2)C(=O)N([C@H](C)CO)C[C@@H](C)[C@@H](CN(C)C(=O)NC(C)C)O3)cc1	1.0	1.6
CC(C)NC(=O)N(C)C[C@@H]1Oc2c(NC(=O)Nc3ccc(F)cc3)cccc2C(=O)N([C@H](C)CO)C[C@@H]1C	0.9	nt
COc1ccc(S(=O)(=O)N(C)C[C@H]2Oc3c(NC(=O)c4cc(C)nn4C)cccc3C(=O)N([C@H](C)CO)C[C@H]2C)cc1	-2.9	nt
Cc1ccc(S(=O)(=O)N(C)C[C@@H]2Oc3c(NC(=O)NC(C)C)cccc3C(=O)N([C@H](C)CO)C[C@H]2C)cc1	0.3	nt
CCOC(=O)c1cnc2ccc(OCC)cc2c1NCc1ccccc1	15	nt
COc1c(C(O)CC(C)C)ccc2c1C(=O)OCc1cc(C)cc(O)c1O2 (stereo not given)	5.0	-1.1
COc1ccc(S(=O)(=O)N(C)C[C@H]2Oc3ccc(NC(=O)Cn4cnnn4)cc3C(=O)N([C@H](C)CO)C[C@H]2C)cc1	-0.6	1.3
O=C(CN1C(=O)COc2ccccc21)NCc1ccccn1	4.3	0.8
COc1ccc(CN(C)C[C@H]2Oc3c(NS(=O)(=O)c4ccc(C)cc4)cccc3C(=O)N([C@@H](C)CO)C[C@@H]2C)cc1	3.2	nt

A second format for some results above.
Each structure is followed by: BJeLR viability	A1 inhib
- CC1(C)CC(=O)C2=C(C1)Nc1[nH]c(=S)[nH]c(=O)c1C2c1cccs1 (stereo not given)
    15	-0.5
- Cn1c(SCC(=O)NN)nnc1-c1ccccc1
    -3.7	-0.1
- O=C(CN1C(=O)COc2ccccc21)NCc1ccccn1
    4.3	0.8
- CCOC(=O)c1cnc2ccc(OCC)cc2c1NCc1ccccc1
    15	nt
- CNC[C@@H]1Oc2c(N)cccc2C(=O)N([C@@H](C)CO)C[C@@H]1C
    -3.7	nt
- COc1ccc(S(=O)(=O)N(C)C[C@H]2Oc3ccc(NC(=O)Cn4cnnn4)cc3C(=O)N([C@H](C)CO)C[C@H]2C)cc1
    -0.6	1.3
- Cc1ccc(S(=O)(=O)N(C)C[C@@H]2Oc3c(NC(=O)NC(C)C)cccc3C(=O)N([C@H](C)CO)C[C@H]2C)cc1
    0.3	nt

Additional entries follow:
SMILES	BJeLR viability	A1 inhib
CC(C)CC1(C)N=C(c2ccccc2)C(=S)N1 (stereo not given)	-0.7	nt
Cc1noc(C)c1S(=O)(=O)Nc1ccc2c(c1)C(=O)N([C@H](C)CO)C[C@@H](C)[C@H](CN(C)Cc1ccc3c(c1)OCO3)O2	-1.4	-1.5
CC(C)NC(=O)Nc1cccc2c1O[C@@H](CN(C)S(=O)(=O)c1cccs1)[C@@H](C)CN([C@H](C)CO)C2=O	0.8	nt
C[C@@H]1CN([C@H](C)CO)C(=O)c2cc(NC(=O)C3CCCCC3)ccc2O[C@H]1CN(C)C(=O)Nc1cccc2ccccc12	-2.2	-0.7
CC(C)(C)Sc1nc2ccccc2[nH]c1=S	-9.5	-0.7
Cc1ccc(S(=O)(=O)N(C)C[C@@H]2Oc3ccc(NC(=O)Nc4ccc(F)cc4)cc3C(=O)N([C@@H](C)CO)C[C@H]2C)cc1	1.9	0.7
C[C@@H]1CN([C@H](C)CO)C(=O)c2cc(NS(=O)(=O)c3cn(C)cn3)ccc2O[C@H]1CN(C)S(=O)(=O)c1ccccc1	-0.4	0.5
Cc1cccc(N=Cc2c(O)n(-c3ccccc3)c(=O)c3ccccc23)c1	-2.0	4.9
C[C@@H]1CN([C@@H](C)CO)C(=O)c2cccc(N(C)C)c2O[C@H]1CN(C)Cc1ccc(C(=O)O)cc1	-8.2	nt
O=C(Cc1ccc(CC(=O)c2ccccc2)cc1)c1ccccc1	-4.1	-2.8
COc1ccc(NC(=O)N(C)C[C@@H]2Oc3ccc(NS(=O)(=O)c4cccs4)cc3C(=O)N([C@H](C)CO)C[C@H]2C)cc1	0.7	-0.8
O=C(O)c1ccccc1C(=O)NCCc1ccccc1	-3.3	0.1
CCOC(=O)c1ccccc1NC(=O)Cn1c(-c2cccs2)noc1=O	-0.7	0.6
O=C1C=CC(O)(/C=C/C(=O)OC[C@H]2O[C@@H](Oc3ccc(O)cc3)[C@H](O)[C@@H](OC(=O)/C=C/C3(O)C=CC(=O)C=C3)[C@@H]2O)C=C1	-1.5	-0.8
FC(F)(F)c1cc(-c2ccc3ccccc3c2)nn1C(=S)N1CCOCC1	-1.4	-0.5
Cc1nc2ccccc2c2oc(C(=O)N3CCC(C)CC3)cc12	-1.5	nt
CCOC(=O)C1=C(C)N2CCN=C2S1	4.9	0.1
C[C@@H]1CN([C@H](C)CO)C(=O)c2cc(NC(=O)Nc3ccc(F)cc3)ccc2O[C@@H]1CN(C)C(=O)Nc1ccc(C(F)(F)F)cc1	-4.7	0.2
COc1ccc(/C=C(/NC(=O)c2ccccc2)C(=O)N2CC3(C)CC2CC(C)(C)C3)cc1 (stereo not given)	-4.4	0.6
Cc1nn(CCCC(=O)O)c(=O)c2c1sc1ccccc12	1.1	0.6
Cc1oc2cc(O)ccc2c(=O)c1Oc1ccc(Cl)cc1	-4.4	nt
COc1ccc(S(=O)(=O)N(C)C[C@@H]2Oc3c(NC(=O)c4ccncc4)cccc3C(=O)N([C@@H](C)CO)C[C@H]2C)cc1	1.3	nt
CC1(C)CC[C@]2(C(=O)O[C@@H]3O[C@H](CO)[C@@H](O)[C@H](O)[C@H]3O)CC[C@]3(C)C(=CCC4[C@@]5(C)C[C@@H](O)[C@H](O)[C@@](C)(CO)C5CC[C@]43C)C2[C@@H]1O (stereo not given in full)	-9.1	1.0
Cc1ccc(S(=O)(=O)N(C)C[C@@H]2Oc3ccc(NC(=O)Nc4c(C)noc4C)cc3C(=O)N([C@@H](C)CO)C[C@@H]2C)cc1	-0.6	0.2
COc1cc2c(cc1OC)C1CN3CCc4cc(OC)c(OC)cc4C3CN1CC2 (stereo not given)	18	-0.2
O=C(NCc1ccccc1)c1ccc2nc3ccccc3c(=O)n2c1	0.3	nt
COC(=O)c1c(NC(=O)c2ccc(C)cc2)sc(C)c1C	-0.6	nt

Screening data from PubChem BioAssay.
